# Assay outcomes (PubChem BioAssay)
# FPRL1 binder: ligands of human FPRL1, also counter-screen for FPR ligands; FPRL1-expressing cells, fluorescent ligand binding inhibition, flow cytometry; inhibition, %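 (tested at 6.7 µM)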; P25090; AID 441; actives 0.3% (n = 24,000);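 further: 0% = buffer alone and 100% = receptor blocker peptide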
# Target sequence (P25090 whole entry, looked up): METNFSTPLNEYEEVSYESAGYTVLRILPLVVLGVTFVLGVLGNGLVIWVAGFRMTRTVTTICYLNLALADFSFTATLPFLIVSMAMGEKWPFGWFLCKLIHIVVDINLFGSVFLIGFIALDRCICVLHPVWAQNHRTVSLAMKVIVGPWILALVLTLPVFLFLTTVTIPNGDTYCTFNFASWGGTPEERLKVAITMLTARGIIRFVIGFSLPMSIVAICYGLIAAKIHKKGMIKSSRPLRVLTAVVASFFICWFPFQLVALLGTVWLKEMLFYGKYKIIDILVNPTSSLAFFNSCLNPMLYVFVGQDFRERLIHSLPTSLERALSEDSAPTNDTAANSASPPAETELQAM
# VCAM-1 down: inhibitors of TNFa-induced VCAM-1 surface display, cell-based, plate reader, pooled HUVEC, TNFa stimulus (AID 454) | inhibition, % at 5 µM | HUVEC TNFa-induced VCAM-1 surface immunofluorescence, plate reader; numbers were filed only for top-ranked candidate wells | actives 0.2% (n = 10,000);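 active means compound among top-ranked inhibitors of TNF-induced VCAM-1 adhesion protein staining, with the hit upheld by image or statistical review; inactive means the rest, including hits rejected on review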;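 further: 0% = TNFa with vehicle and 100% = cells without TNFa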
# VCAM-1 up imaging: boosters of cytokine-driven VCAM-1 levels – imaging, high-content imaging, pooled HUVEC, TNFa stimulus (AID 457) | actives 0.2% (n = 10,000) | calls only | Pooled HUVEC, TNFa-induced VCAM-1 immunofluorescence imaging; hits of this screen are not shown here;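 active means a top-ranked rise in VCAM-1 staining upheld on image or statistical review; inactive means the rest, including candidates rejected on review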;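 further: compounds tested at 5 µM in the well; cells exposed to compound for 24 hours before fixing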
# FPR binder: ligands of human FPR, also counter-screen for FPRL1 ligands | P21462 | FPR-expressing cells, fluorescent ligand binding, flow cytometry | inhibition, %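 (tested at 6.7 µM)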 | actives 0.74% (n = 24,000) | AID 440;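 further: 0% = buffer wells and 100% = receptor blocker peptide wells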
# VCAM-1 imaging: inhibitors of TNFa-induced VCAM-1 surface display, imaging, high-content imaging, pooled HUVEC, TNFa stimulus (AID 456) | HUVEC TNFa-induced VCAM-1 surface expression, immunofluorescence imaging; numbers were filed only for top-ranked candidate wells | one-dose inhibition, % at 5 µM; IC50 in µM for titrated hits | actives 0.2% (n = 10,000);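 active means top tenth filtered wells with inhibition above zero that passed visual or statistical confirmation; inactive means the rest, including hits rejected on review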;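 further: 0% = stimulated vehicle wells and 100% = unstimulated cells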
# * hit, by the source's call; i = inactive.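 How the source made its calls, unless noted: active means mean above 30%; inconclusive means self-fluorescent; inactive means the rest.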
(1) Cc1oncc1C(=O)Nc1ccc(C(F)(F)F)cc1
(2) CN1CCC(=C2c3ccccc3CC(=O)c3sccc32)CC1
(3) OCC(O)CN1CCN(c2ccccc2)CC1 (stereo not drawn)
(4) CN(C)CCOC(=O)C(c1ccccc1)C1(O)CCCC1 (stereo not drawn)
(5) CCCN(CCC)C(=O)C(CCC(=O)O)NC(=O)c1ccccc1 (stereo not drawn)

entry no.,1,2,3,4,5
FPR binder,-3,4,5,4,2
VCAM-1 imaging,i,i,i,i,i
VCAM-1 up imaging,i,i,i,i,i
FPRL1 binder,2,-1,12,2,-1
VCAM-1 down,i,i,i,i,i

# Arranged by molecular weight (falling): some entries from above.
(5) CCCN(CCC)C(=O)C(CCC(=O)O)NC(=O)c1ccccc1 (stereo not drawn)
(4) CN(C)CCOC(=O)C(c1ccccc1)C1(O)CCCC1 (stereo not drawn)
(3) OCC(O)CN1CCN(c2ccccc2)CC1 (stereo not drawn)

entry no.,5,4,3
FPR binder,2,4,5
VCAM-1 imaging,i,i,i
VCAM-1 up imaging,i,i,i
FPRL1 binder,-1,2,12
VCAM-1 down,i,i,i

# Remaining list, next part.
(6) O=C1CCc2cc(OCCCCc3nnnn3C3CCCCC3)ccc2N1
(7) CCN(CC)CCOC(=O)C(c1ccccc1)c1ccccc1
(8) OCCOCCN1CCN(C(c2ccccc2)c2ccc(Cl)cc2)CC1 (stereo not drawn)
(9) CCOC(=O)Nc1ccc2c(c1)N(C(=O)CCN1CCOCC1)c1ccccc1S2

entry no.,6,7,8,9
FPR binder,-4,-6,2,-2
VCAM-1 imaging,i,i,i,i
VCAM-1 up imaging,i,i,i,i
FPRL1 binder,2,-4,3,-4
VCAM-1 down,i,i,i,i

# By substructure: those above with a carbonyl joined to an NH by a bond outside any ring
(1) Cc1oncc1C(=O)Nc1ccc(C(F)(F)F)cc1
(5) CCCN(CCC)C(=O)C(CCC(=O)O)NC(=O)c1ccccc1 (stereo not drawn)
(9) CCOC(=O)Nc1ccc2c(c1)N(C(=O)CCN1CCOCC1)c1ccccc1S2

entry no.,1,5,9
FPR binder,-3,2,-2
VCAM-1 imaging,i,i,i
VCAM-1 up imaging,i,i,i
FPRL1 binder,2,-1,-4
VCAM-1 down,i,i,i

# An excerpt (hit frequency here may not be typical).
